T cruzi inh: inhibitors of intracellular T. cruzi growth, primary screen, luminescence, NIH3T3 host cells | AID 1885, 2009 | 300,000 tested, 1.4% active | T. cruzi beta-gal in NIH3T3, 90 h | inhibition, % (concentration not given with the values);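 active = mean inhibition across valid replicates above about 55%, limit read from the data; inconclusive = mean below that limit but half or more replicates reach it; inactive = mean below it, under half of replicates reach it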;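 also: signal also drops with host cell toxicity which is not excluded here; 0% = plate median of DMSO wells and 100% = zero luminescence signal; higher percent means less beta-gal luminescence so fewer parasites; stock transfer was 50 nL into about 50 µL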
MLL AF4-AF9 inh: inhibitors of AF4 peptide binding to AF9, primary screen, biochemical, AlphaScreen, biotin-AF4 peptide, FLAG-AF9, single point; 350,000 tested, 0.47% active; Protein AF-9 (Homo sapiens), P42568; inhibition, % at 10 µM;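 active = every replicate reaching a set inhibition limit, whatever the replicate mean, cut at about 25% in these data; inconclusive = mean inhibition reaches that limit but some replicates miss it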;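 also: 0% = plate neutral control median and 100% = total signal loss; the record names both 10 and 1 µM as test concentration; the first replicate is given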
Target sequence (P42568 whole entry, looked up): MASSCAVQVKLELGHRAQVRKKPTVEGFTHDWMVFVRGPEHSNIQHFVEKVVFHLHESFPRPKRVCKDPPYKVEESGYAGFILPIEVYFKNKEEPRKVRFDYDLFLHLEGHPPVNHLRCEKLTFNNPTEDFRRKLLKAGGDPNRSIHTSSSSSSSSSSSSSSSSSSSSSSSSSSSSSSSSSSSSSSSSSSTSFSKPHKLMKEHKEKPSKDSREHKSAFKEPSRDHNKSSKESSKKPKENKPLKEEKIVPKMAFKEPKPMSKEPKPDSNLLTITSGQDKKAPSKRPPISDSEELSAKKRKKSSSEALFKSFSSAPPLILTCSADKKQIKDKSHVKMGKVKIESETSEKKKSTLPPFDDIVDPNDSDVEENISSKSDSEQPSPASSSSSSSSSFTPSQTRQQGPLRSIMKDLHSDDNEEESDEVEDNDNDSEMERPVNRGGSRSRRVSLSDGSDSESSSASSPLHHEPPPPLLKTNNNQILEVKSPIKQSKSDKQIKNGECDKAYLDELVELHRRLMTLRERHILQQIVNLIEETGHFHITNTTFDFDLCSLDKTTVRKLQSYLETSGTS
Calb FLC: C. albicans growth inhibition with fluconazole, primary screen, CaCi-2 strain, Alamar Blue fluorescence | C. albicans CaCi-2 (fluconazole-resistant clinical isolate) + fluconazole, 48 h | growth inhibition, % (test concentration not listed) | 300,000 tested, 0.57% active | AID 1979, 2009;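 active = most replicates above 75%; inconclusive = exactly half above 75%; inactive = most below 75%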;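 also: all wells also contain fluconazole at 8 µg/ml as a sub-toxic cotreatment; 0% = median of DMSO wells and 100% = median of geldanamycin control wells; wells of about 8 µL received 7.5 nL stock; the first replicate is given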
FGF22 binding: binders of human FGF22 protein, primary screen, FGF22 synaptogenesis inhibitor project, biophysical, thermal shift, single point. recombinant FGF22 thermal shift, SYPRO orange fluorescence; percent of sucrose octasulfate shift, DMSO zero. calls only at 9.99 µM. 340,000 tested, 1.5% active. AID 651658, 2012;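 active = melting point raised past a set limit in the mean and every replicate; inconclusive = no clear call; three in four hits are not shown here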
Target sequence (Q9HCT0 whole entry, looked up): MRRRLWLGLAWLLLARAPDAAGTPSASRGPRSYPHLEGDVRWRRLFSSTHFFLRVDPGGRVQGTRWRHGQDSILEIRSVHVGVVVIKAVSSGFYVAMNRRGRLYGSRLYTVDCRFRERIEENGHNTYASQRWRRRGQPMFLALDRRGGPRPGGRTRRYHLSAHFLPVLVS
Ecoli rRNA inh: reduced GFP signal of wild-type E. coli, primary screen, bacterial rRNA inhibitor project, GFP/RFP fluorescence, OD600, single point. AID 720706, 2013. E. coli WT GFP vs humanized-ribosome RFP mutants, 24 h; hits give low values; DMSO median 0, no signal -100. GFP signal change (wild-type ribosome), % (test concentration not listed). 350,000 tested, 1.6% active;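 active = significant combined selectivity score with lowered wild-type GFP, culture density cut under 30%, mutant RFP and density less affected; inactive = any of these conditions unmet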; also: one replicate is shown; some compounds called inactive have numbers as strong as hits
RanGTP-Impb inh: inhibitors of RanGTP-importin-beta interaction, primary screen, biochemical, FRET, CFP-Ran, YFP-importin-beta, homogeneous; Ran GTPase (GTP-bound) - importin-beta complex; cell-free CFP-Ran/YFP-importin-beta FRET ratio; inhibition, % (no concentration beside the values); 300,000 tested, 1.1% active;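 active = most replicates above 15%; inconclusive = exactly half above 15%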;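 also: 0% = DMSO wells and 100% = Ran loaded with GDP instead of GTP; wells of about 40 µL received 100 nL stock; the first replicate is given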
ALR inh: inhibitors of human ALR sulfhydryl oxidase, primary screen, biochemical, H2O2 detection, HRP-luminol luminescence, single point; FAD-linked sulfhydryl oxidase ALR (Homo sapiens), P55789; inhibition, % (concentration not given with the values); purified ALR, DTT oxidation; 290,000 tested, 3.8% active;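 active = mean and each replicate at 75% or more; inconclusive = only one of the two met; inactive = neither met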;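 also: stock transfer was 7.5 nL into about 7.5 µL; 0% = neutral wells and 100% = wells with inactivated enzyme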
Target sequence (P55789 whole entry, looked up): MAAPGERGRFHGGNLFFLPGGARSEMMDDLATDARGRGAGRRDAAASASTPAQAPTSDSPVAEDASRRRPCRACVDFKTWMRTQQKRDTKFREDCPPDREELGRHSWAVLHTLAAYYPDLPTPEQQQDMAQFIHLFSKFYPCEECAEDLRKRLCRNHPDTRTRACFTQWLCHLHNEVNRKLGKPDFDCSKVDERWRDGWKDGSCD
Beta apoptosis: inhibitors of cytokine-induced beta cell apoptosis, primary screen, luminescence; INS-1E cytokine-induced death, ATP luminescence, 48 h; percent of positive-control rescue, neutral wells zero; protection from apoptosis, % (concentration not given with the values); 300,000 tested, 0.8% active;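 active = all replicates at 75% or more, or half of them and the mean; inconclusive = half reach 75% but not the mean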;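 also: 0% = cytokine-treated negative control wells and 100% = positive control rescue; higher means more ATP so stronger rescue from cytokine killing; wells of about 40 µL received 100 nL stock; the first replicate is given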
Ecoli rRNA inh OD600: recorded beside Ecoli rRNA inh, whose call it bears; OD600 change, %; measured here: OD600 growth;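 optical density of the mix in the first replicate; 0 = DMSO median and -100 = no signal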
Ecoli rRNA inh RFP: further read-out of Ecoli rRNA inh, marked with its call; RFP signal change, %; measured here: RFP humanized mutant strains;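 first replicate; 0 = DMSO median and -100 = no signal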
The depositor's hits bear a star; i = inactive; u = inconclusive; x = no result given. These rows are one share of the data (hit frequency here may not be typical).

SMILES | T cruzi inh | MLL AF4-AF9 inh | Calb FLC | FGF22 binding | Ecoli rRNA inh | Ecoli rRNA inh OD600 | Ecoli rRNA inh RFP | RanGTP-Impb inh | ALR inh | Beta apoptosis
O=C(NC1CCCC1)C(c1ccncc1)N(C(=O)c1ccco1)c1ccc(F)c(Cl)c1 (stereo not drawn) | -4 | 1.9 | -20 | i | -10 | -12 | 2.9 | 2.8 | x | -3
Cc1cc(C)cc(NC(=S)NCc2ccc3c(c2)OCO3)c1 | -17 | x | 9 | x | -11 | -28 | -5.8 | 1.6 | 1 | -4
COC(=O)CC1C(=O)NCCN1C(=O)CSc1nc2cc(Cl)ccc2o1 (stereo not drawn) | -10 | -1.4 | 15 | i | -1 | -7 | 2.0 | 1.0 | -1 | -5
Cc1ccc(C(=O)NC(=C(Cl)Cl)S(=O)(=O)c2ccccc2)cc1 | -20 | 1.2 | 19 | i | -11 | -13 | 3.4 | -1.2 | 67 | 4
CN(CC(=O)Nc1ccc(OC(F)(F)F)cc1)C(=O)Cn1c(=O)cnc2ccccc21 | x | 0.3 | x | i | 5 | 4 | -6.5 | x | -5 | -8
CCCCCc1nc2c(=O)[nH]c3ccccc3c2o1 | -3 | x | -6 | x | x | x | x | -0.5 | -4 | x
COc1ccc(NC(=O)c2oc3ccccc3c2NC(=O)C(C)(C)C)cc1 | 11 | x | 15 | x | x | x | x | -4.6 | 49 | 11
CC(COC(=O)c1ccccc1)(COC(=O)c1ccccc1)/[N+]([O-])=C/c1ccccc1 | -8 | 4.8 | -11 | i | x | x | x | -0.7 | -21 | -5
COc1ccc(C(=O)N/N=C/c2ccc(OC)c(COc3ccc(F)cc3F)c2)cc1 | 12 | -1.3 | 12 | i | -4 | -4 | 1.3 | -6.1 | 2 | -9
COc1ccnc(N=CNOCc2ccc(Cl)cc2)c1C#N | 0 | -5.0 | -3 | i | 8 | 2 | -7.9 | -7.0 | -11 | -5
CCc1ccc(/C=C/C(=O)c2c(C)cc(C)[nH]c2=O)cc1 | -2 | x | 26 | x | x | x | x | 1.3 | 14 | -24
COC(=O)C1=CN(Cc2ccc(F)cc2)C=C(C(=O)OC)C1c1ccc(O)c(OC)c1 | 3 | -3.2 | -1 | i | -15 | -8 | 4.3 | 9.8 | 1 | -2
Cc1ccccc1-n1nc(C(=O)O)cc1-c1ccccc1 | -2 | x | -2 | x | x | x | x | 3.8 | 0 | 0
Cc1cc(OCC(C)C)ccc1/C(O)=C1/C(=O)C(=O)N(Cc2cccnc2)C1c1ccncc1 (stereo not drawn) | -1 | x | -3 | x | x | x | x | -1.0 | -5 | -4
O=C(Oc1ccccc1)c1ccc2nccnc2c1 | -27 | x | 11 | x | x | x | x | u | 3 | -3
NC(=O)CC(NC(=O)c1ccccc1)c1ccc(N2CCN(c3ccc(F)cc3)CC2)c([N+](=O)[O-])c1 (stereo not drawn) | -11 | 2.4 | 8 | i | 6 | 10 | -2.5 | -4.4 | x | -4
CCn1c(COc2cccc(C)c2)nnc1SCC(=O)Nc1cccc(C(=O)O)c1 | -5 | x | 6 | x | x | x | x | 3.8 | -1 | 4
COc1cc(C(=O)NCc2nnc(SCC(=O)NC3CCCC3)o2)cc(OC)c1OC | -2 | 2.1 | -4 | i | -1 | 0 | -2.0 | 5.4 | -19 | -5
COc1ccc(Cl)cc1NC(=O)CCCC(=O)c1ccccc1 | -2 | -2.3 | -13 | i | -1 | 0 | 2.4 | 2.4 | -7 | 3
COc1ccc(/C=C/c2cc(=O)c3cc(Cl)ccc3o2)cc1 | -11 | 1.2 | 3 | i | -15 | -28 | -11 | 5.0 | 97* | 8
O=C1NC(=O)/C(=C\c2ccc(O)cc2O)S1 | -5 | -5.7 | 10 | x | -20 | -14 | -9.3 | -3.5 | 99* | 10
Cc1ccc2c(c1)C(=O)C(=O)N2Cc1ccc(C(F)(F)F)cc1 | x | 2.4 | x | i | 12 | -6 | 20 | x | -8 | -13
O=C1/C(=C/N(C(=O)c2ccco2)c2ccc(Br)cc2)Sc2ccccc21 | -7 | x | 16 | x | x | x | x | 25* | -4 | 5
Cc1cc(C(=O)CCl)c(C)n1CCc1ccc(F)cc1 | 73* | -1.7 | -33 | x | 2 | 7 | 16 | 6.4 | 12 | 34
CC(C)CC(C(=O)O)N1C(=O)C2C3c4ccccc4C(c4ccccc43)[C@@H]2C1=O (stereo partly drawn) | 2 | -3.2 | -1 | i | -17 | 2 | -7.7 | -1.2 | 24 | -3
COCCn1c(SCC(=O)NC2CCCC2)nnc1-c1ccncc1 | -5 | -1.7 | 2 | i | 6 | 9 | 0.8 | -1.1 | -14 | -1
CCOc1cc(/C=C2/SC(=Nc3ccccc3)N(Cc3cccnc3)C2=O)ccc1OCC#N | 22 | x | -1 | x | x | x | x | -5.5 | -5 | -6
COc1cccc(OC)c1CN1CCCC(C(=O)c2ccccc2SC)C1 (stereo not drawn) | 52 | 3.9 | 59 | i | -4 | -5 | 1.5 | -2.9 | 2 | 17
NNC(=O)c1n[nH]c2c1CC(C1CCCCC1)CC2 (stereo not drawn) | x | 2.0 | x | i | 0 | 10 | 7.0 | x | 17 | -12
COCc1cc(=O)[nH]c(/N=C(\N)Nc2ccc(C)cc2)n1 | -5 | x | -6 | x | x | x | x | -0.2 | -27 | 6
COc1ccccc1Oc1c(C)oc2c(CN(C)C)c(O)ccc2c1=O | -16 | 5.6 | 0 | i | -13 | -9 | -1.7 | 0.6 | -1 | 2
Cc1ccc(N(C(C)C(=O)Nc2ccc(S(=O)(=O)N3CCOCC3)cc2)S(C)(=O)=O)cc1C (stereo not drawn) | 1 | x | 20 | x | x | x | x | 2.2 | -13 | -5
O=c1ncn(-c2ccccc2C(F)(F)F)c2ncccc12 | -14 | 0.6 | -5 | i | 2 | -2 | -3.6 | 1.8 | x | 0
O=c1[nH]c(SCc2cccc([N+](=O)[O-])c2)nc2[nH]ncc12 | -20 | -1.5 | -7 | i | -3 | 1 | -2.2 | -1.8 | 21 | 7
O=C(O)c1ccc(-c2nnn(Cc3ccccc3F)n2)cc1 | 4 | -0.9 | 4 | i | 4 | -3 | -0.6 | -2.8 | 13 | 0
COc1cccc(C2Nc3cccc4cccc(c34)N2)c1 | 12 | -4.6 | 0 | i | 14 | 7 | -1.0 | -3.1 | x | -5
Cc1ccc(NC(=O)CN(C)CC(=O)N(C)Cc2ccccc2)cc1 | x | 2.1 | x | i | -1 | -7 | 1.3 | x | -8 | 3
O=C(Nc1cccc(-c2csc(Nc3ccc(Cl)cc3)n2)c1)c1cccc(C(F)(F)F)c1 | 44 | 4.1 | -6 | i | 2 | 3 | 5.1 | 11 | -9 | 35
C/C(CCc1ccc2c(c1)OCO2)=N\NC(=O)c1ccccc1Cl | -3 | x | 4 | x | x | x | x | -1.2 | 0 | -9
Fc1ccccc1OCCCCCCN1CCCC1 | 49 | x | -1 | x | x | x | x | 5.9 | x | 21

Looked up above:
Reading of O=C(O)c1ccc(-c2nnn(Cc3ccccc3F)n2)cc1 in Ecoli rRNA inh RFP: -0.6
Reading of C/C(CCc1ccc2c(c1)OCO2)=N\NC(=O)c1ccccc1Cl in T cruzi inh: -3

Next part
SMILES | T cruzi inh | MLL AF4-AF9 inh | Calb FLC | FGF22 binding | Ecoli rRNA inh | Ecoli rRNA inh OD600 | Ecoli rRNA inh RFP | RanGTP-Impb inh | ALR inh | Beta apoptosis
CCn1c(CSc2nnc(C)n2-c2ccccc2)nc2cc(S(=O)(=O)N(C)C)ccc21 | 2 | x | 3 | x | x | x | x | 2.2 | x | -5
Cn1ccnc1SCC(=O)Nc1ccc([N+](=O)[O-])cn1 | 2 | 1.1 | -6 | i | 14 | 11 | 1.4 | u | x | x
CCN(CC)S(=O)(=O)c1cc(C(=O)N2CCc3ccccc32)ccc1Cl | 10 | x | -2 | x | x | x | x | 2.6 | -7 | -3
COc1ccccc1NC(=S)N(Cc1ccccc1)Cc1cccs1 | 10 | -1.6 | 0 | i | -7 | -7 | 5.5 | 1.8 | -4 | x
COc1ccc(/C=C/C(=O)OCC(=O)Nc2cc(C(F)(F)F)ccc2Cl)cc1 | -22 | -2.2 | 5 | i | 8 | 5 | 0.4 | -2.7 | -8 | -7
NC(=O)[C@@H]1CCCCNc2c(F)cc([N+](=O)[O-])cc2C(=O)N[C@@H](CC(=O)O)C(=O)N[C@@H](CCC(=O)O)C(=O)N1 | 2 | x | -7 | x | x | x | x | 1.4 | -28 | -1
COc1ccc(/C=C/C(=O)OCC(=O)Nc2cc(S(=O)(=O)N(C)C)ccc2Cl)cc1 | -6 | -0.7 | 17 | x | 11 | 8 | 1.5 | -2.4 | -3 | 1
CCO/N=C/C(=O)Nc1ccc(F)cc1F | -2 | -1.5 | u | i | 4 | 1 | -1.6 | -4.3 | -2 | 1
C=CCCCCCCCC(=O)OC | 1 | 0.3 | -1 | i | x | x | x | 3.3 | -5 | -2
COc1ccccc1C(=O)NCC(=O)N/N=C/c1ccncc1 | -5 | -5.6 | 0 | i | 4 | 2 | -4.7 | -1.6 | x | -5
CC(C)(C)OC(=O)N1CCC(NC(=O)c2nc[nH]c2C(=O)NC2CCN(C(=O)OC(C)(C)C)CC2)CC1 | x | 5.1 | x | i | 18 | 28 | 5.6 | x | -18 | -1
Cc1ccc2nc(NS(=O)(=O)c3cn(C)nc3C)sc2c1 | -14 | -1.0 | -2 | i | -19 | -23 | 0.2 | -3.0 | -1 | -6
Cc1cccc(OCC(=O)Nc2cc(NC(=O)COc3cccc(C)c3)cc(C(=O)O)c2)c1 | 3 | -9.7 | -8 | i | 2 | 20 | 2.3 | 4.6 | 48 | -2
COc1ccc(-c2oc3ncnc(NCCCN(C)C)c3c2-c2ccc(OC)cc2)cc1 | 40 | u | 0 | i | -20 | -35 | 6.4 | -4.0 | -10 | 8
CC(C)c1ccc(N(CC(=O)Nc2ccc(S(=O)(=O)N3CCOCC3)cc2)S(C)(=O)=O)cc1 | 6 | x | 17 | x | x | x | x | -0.1 | -11 | 8
O=c1ccc(Cl)n[nH]1 | -9 | -1.9 | 3 | i | 0 | 6 | 1.0 | -1.3 | x | 0
C=CCNC(=S)N1CCC(C(=O)c2ccc(F)cc2)CC1 | 1 | -0.3 | -4 | i | 3 | 2 | 0.4 | u | -6 | -2
Cc1ccc(NC(=O)C2(NC(=O)c3cccc(N4C(=O)CSC4c4ccccc4)c3)CCCCC2)cc1 (stereo not drawn) | 0 | x | 1 | x | x | x | x | -1.2 | 4 | 5

Screens deposited in PubChem BioAssay by Broad Institute.
